High-throughput results from PubChem BioAssay.
Menin MLL FP FL – menin-MLL binding inhibition, fluorescein peptide | Fluorescence polarization, fluorescein-MLL peptide displacement from menin | FP activity change, % at 61.4 µM | 290,000 tested, under 10 active | AID 1766; inconclusive = falling polarisation curve, or a change in total fluorescence; inactive = total fluorescence flat and polarisation flat or rising; no compound was filed as active; the % refers to the polarisation; negative = inhibition;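 further: % of control where 0% means no effect; inhibitors lower the polarisation; unlabelled MLL peptide was the positive control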
Sfp inh – inhibitors of Bacillus subtilis Sfp phosphopantetheinyl transferase. Potency, µM, for inactives: max response, negative = inhibition, usual class: inhibitors. Biochemical Sfp PPTase activity, qHTS. AID 1490. hit rate 3.5% among 310,000; active means well fitted inhibition curve with a large enough effect; inconclusive means small, poorly fitted or top-dose-only effect, or another doubt; inactive means no such curve, though single readings can be large or run the other way;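 further: the enzyme is Sfp with the accession as filed and its product quenches rhodamine fluorescence; potency means the concentration at half of the fitted maximal effect; 0% = enzyme reaction without inhibitor and -100% = no enzyme wells; top concentration of the series not given in the record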
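Fluorescence-quenching assay: 15 nM Sfp-PPTase preincubated 15 min at room temperature with compound, then 5 uM rhodamine-CoA and 12.5 uM BHQ-2-labelled YbbR peptide added. Fluorescence (ex 525/em 598 nm) read at start and after 30 min; difference gives rate.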
Starred values were filed as active, the others as inactive; ? = inconclusive; & = joins results of further samples; [ ] = another dose, or the depositor's remark. Only part of the results is shown; count on the stated rates, not on these rows.

Under each structure – Menin MLL FP FL | Sfp inh
- O=C(/C=C/C(=O)Oc1ccccc1C(=O)O)Oc1ccccc1C(=O)O
→ -7.9 | -5%
- O=C(/C=C\c1ccc2c(c1)OCO2)c1ccc(F)cc1
→ 4.6[11.7 µM] | -1%
- CC[C@H](C)[C@H](NC(=O)[C@H](CCC(=O)O)NC(=O)CNC(=O)[C@@H](NC(=O)[C@@H]1CCCN1C(=O)[C@@H](NC(=O)[C@@H]1CCCN1C(=O)[C@@H]1CCCN1C(=O)[C@H](CC(N)=O)NC(=O)[C@H](CC(N)=O)NC(=O)[C@@H](NC(=O)[C@H](CCSC)NC(=O)[C@H](Cc1c[nH]c2ccccc12)NC(=O)CNC(=O)[C@@H](NC(=O)[C@H](CCC(N)=O)NC(=O)[C@@H](N)CCC(=O)O)[C@@H](C)CC)[C@@H](C)O)[C@@H](C)CC)C(C)C)C(=O)O
→ -4.9 | 5%
- CCNc1ncc2nc(-c3cc(F)cc(F)c3)c(=O)n(C)c2n1
→ ? | 10%
- CC(C)CN1CCCC2(CCN(C(=O)c3csnn3)CC2)C1
→ 4.4 | -2%
- Cc1ccc(OC2C(O)COC2/C=C/C#Cc2ccc(C(C)(C)C)cc2)cc1 (stereo not drawn)
→ -4.6&-2.6[11.7 µM] | -3%&16%
- C/C(Nc1ccc2oc(=O)ccc2c1)=C1/C(=O)CC2[C@@H]1C2(C)C (stereo partly drawn)
→ -11 | ?
- O=c1cnc2cnc(Nc3ccccc3)nc2n1Cc1ccc(F)cc1
→ 8.3 | 21%
- COc1ccc(C(=O)N2CCC3(CCCN(C(=O)Nc4cccc(F)c4)C3)CC2)cc1
→ -3.7 | -5%
- CN1CCN(c2ncnc3ccc(-c4ccccc4C#N)cc23)CC1
→ -3.5 | 7%
- O=C1CCC=C1C(O)c1ccc(Cl)cc1 (stereo not drawn)
→ 0.8 | -8%
- C=CCCCCCCCCCCC/C=C/C(O)COC(C)=O (stereo not drawn)
→ 6.4 | ?
- CC(=O)OCC(=O)C1CCC2C3CC=C4CC(O)CC[C@@]4(C)C3CC[C@]12C (stereo partly drawn)
→ 5.1 | 3%
- COCCn1c(=O)c(-c2ccccc2)nc2cnc(Nc3cccc(OC)c3)nc21
→ ? | 22%
- CC(=O)c1c(O)c(C)c(O)c2c1OC1=CC(=O)C(C(C)=O)C(=O)C12C (stereo not drawn)
→ ? | 11%
- CN(C)c1nc(-c2ccoc2)nc2ccccc12
→ ? | 50µM*
- COC(=O)[C@@]1(Cc2ccc(OC)cc2)[C@H]2c3cc(C(=O)N(C)C)n(CCc4ccc(O)c(OC)c4)c3C[C@H]2CN1C(=O)c1ccccc1
→ -1.7 | 21%
- CN(Cc1ccco1)c1nc(-c2ccccc2C(F)(F)F)nc2ccccc12
→ -0.5 | -30%
- COc1ccccc1-c1ccc2ncnc(NCc3cccnc3)c2c1
→ 2.4 | -19%
- Cc1cc(=O)cc2oc3cc(N)c(-c4c(C)cc(O)cc4O)c(C)c3nc1-2
→ 26 | 50µM*

Carrying on.
Under each structure – Menin MLL FP FL | Sfp inh
- COc1ncc2ncc(=O)n(C[C@H]3CCCO3)c2n1
→ ? | 26%
- CCNc1ncc2nc(CCc3ccccc3)c(=O)n(C)c2n1
→ 1.3 | -5%
- CCN(CC)CCOC(=O)c1cccnc1
→ 1.0 | 15%
- CSCC[C@@H]1NC(=O)C/C=C\[C@@H](C)COC(=O)[C@H](C)COC1=O
→ -4.1[11.7 µM] | 4%
- COc1ccc(C(=O)N2CCC3(CC2)CCN(c2ncccn2)CC3)cc1
→ -0.2 | 22%
- Cc1nc2cnc(N3CCNCC3)nc2n(CCC#N)c1=O
→ 2.2 | 36%[activator]
- C[C@@H]1C(=O)O[C@H]2[C@H](O)[C@@]34[C@H]5CC(C(C)(C)C)[C@]36[C@H](OC(=O)[C@H]6O)O[C@]4(C(=O)O5)[C@@]12O (stereo partly drawn)
→ -6.7 | 2%
- CC(=O)Nc1ccc(/C=N/NC(N)=S)cc1
→ 2.9&-6.8 | ?
- O=C(c1ccncc1)N1CCC2(CC1)CCN(c1ncccn1)CC2
→ -8.0 | 10%
- CC(C)(CCCCCCCCCCC(C)(C)CC(=O)O)CC(=O)O
→ 3.6 | 1%
- NC(CCC(=O)NCS(=O)(=O)O)C(=O)O (stereo not drawn)
→ 3.8 | 50µM*
- O=c1cc(-c2ccccc2Cl)oc2c([N+](=O)[O-])ccc(O)c12
→ 7.4[94.6 µM] | -10%
- CC(C)[N+]1(C)[C@@H]2CC[C@H]1CC(OC(=O)[C@@H](CO)c1ccccc1)C2 (stereo partly drawn)
→ ? | 13%&24%
- CC(=O)N[C@@H](CC(C)C)C(=O)N[C@@H](CC(C)C)C(=O)N[C@H](C=O)CCCN=C(N)N
→ -0.2 | -3%
- O=C(NCCCCCCNC(=O)ON=C1CCCCC1)ON=C1CCCCC1
→ 8.0&-1.4 | 4%&17%&9%
- Cc1ccc2nsnc2c1S(=O)(=O)Nc1cccc2cccnc12
→ -5.2 | 0%
- COc1cc(NS(=O)(=O)c2ccc([N+](=O)[O-])cc2)c2ncccc2c1
→ -1.9 | 6%
- O=C1/C(=C\c2ccc(O)c(O)c2)Oc2cc(O)ccc21
→ ? | ?
- O=C1N=C(O)CN1/N=C\c1ccc(-c2ccc([N+](=O)[O-])cc2)o1
→ 88[activator] | -3%&16%
- COc1cccc(Cn2c(=O)c(-c3cccs3)nc3cnc(Nc4cccc(OC)c4)nc32)c1
→ ? | 14%

Exported with values ahead of the structure: entries from further up
| Menin MLL FP FL | Sfp inh | structure |
| --- | --- | --- |
| 7.4[94.6 µM] | -10% | O=c1cc(-c2ccccc2Cl)oc2c([N+](=O)[O-])ccc(O)c12 |
| ? | 13%&24% | CC(C)[N+]1(C)[C@@H]2CC[C@H]1CC(OC(=O)[C@@H](CO)c1ccccc1)C2 (stereo partly drawn) |
| -0.2 | -3% | CC(=O)N[C@@H](CC(C)C)C(=O)N[C@@H](CC(C)C)C(=O)N[C@H](C=O)CCCN=C(N)N |
| 8.0&-1.4 | 4%&17%&9% | O=C(NCCCCCCNC(=O)ON=C1CCCCC1)ON=C1CCCCC1 |
| -5.2 | 0% | Cc1ccc2nsnc2c1S(=O)(=O)Nc1cccc2cccnc12 |

Next section:
Under each structure – Menin MLL FP FL | Sfp inh
- O=P1(O)Oc2c(-c3ccccc3)cc3ccccc3c2-c2c(c(-c3ccccc3)cc3ccccc23)O1
→ -1.4 | 6%
- Cn1c(=O)n2n(c1=O)[C@H]1[C@H](O)[C@H]3O[C@@H]3/C(=N/OC[C@@H](O)COCc3ccco3)[C@@H]1CC2
→ 1.5[11.7 µM] | 5%
- O=c1cc(-c2ccc(O)c(O)c2)oc2ccccc12
→ 29 | -59%
- COC(=O)C/C=C\[C@@H](C)[C@@H](/C=N\OC[C@@H]1O[C@H](c2ccccc2)C=C[C@@H]1Oc1ccc(OC)cc1)NS(=O)(=O)c1ccc(C)cc1
→ -2.2[11.7 µM] | -2%
- Cc1cnc(CNc2nc(-c3ccc(C(=O)N(C)C)cc3)nc3ccccc23)cn1
→ -2.9 | -13%
- COC(=O)C(O)C1C(C)(C)C(OC(C)=O)C2CC3=C4CC(=O)OC(c5ccoc5)[C@]4(C)CCC3[C@@]1(C)C2=O (stereo partly drawn)
→ 1.5 | 5%
- COc1cccc(Cn2c(=O)c(C)nc3cnc(Nc4cccc(OC)c4)nc32)c1
→ 3.3 | -10%
- C[C@H](O/N=C1/[C@H]2O[C@@H]2[C@@H](O)[C@H]2[C@H]1CCn1c(=O)n(-c3ccccc3)c(=O)n12)c1cn([C@H]2COC[C@H]2O)nn1
→ 1.7[11.7 µM] | 11%
- COc1ccc2c(c1OC)C(=O)O[C@H]2C1c2c(cc3c(c2OC)OCO3)CCN1C (stereo partly drawn)
→ 6.6&-2.2 | 8%&-14%
- COCCn1c(=O)cnc2cnc(N3CCNCC3)nc21
→ -1.9 | 14%
- C=CCC(C)(O)c1cccc(C(F)(F)F)c1 (stereo not drawn)
→ 2.4 | -8%
- COc1ncc2nc(CCc3ccccc3)c(=O)n(-c3ccccc3)c2n1
→ 3.4 | -7%
- COc1ccc(COC(=O)N/N=C2/C[C@@H](O)[C@@H](O)[C@@H]3[C@@H]4C(=O)N(C5CCCCC5)C(=O)[C@H]4CC[C@@H]23)cc1
→ -2.8[11.7 µM] | -19%
- COC(=O)[C@@]1(Cc2ccc(F)cc2)[C@@H]2C(=CC(=O)[C@H]2CC(=O)C(=O)N2CCCC2)CN1C(=O)c1ccccc1
→ 11 | 0%
- N#Cc1ccccc1-c1ccc2ncnc(NCc3ccccc3)c2c1
→ -4.9 | -7%
- Cc1ccc2[nH]c3nc(CCCn4ccnc4-c4ccccc4)nnc3c2c1
→ 0.7[11.7 µM] | 7%
- NNc1nnc(NN)c2ccccc12
→ -1.4 | 89µM*
- O=C1C=C[C@@H](O)[C@H]2[C@@H]3C(=O)N(C[C@@H]4CCCO4)C(=O)[C@@H]3CC[C@H]12
→ 2.9[11.7 µM] | -4%
- CC[C@H](C)[C@H](NC(=O)[C@H](CCC(=O)O)NC(=O)[C@H](C)NC(=O)[C@@H](NC(=O)[C@H](Cc1cnc[nH]1)NC(=O)[C@@H](NC(=O)[C@H](CCC(=O)O)NC(=O)[C@H](C)NC(=O)[C@@H](NC(=O)[C@H](CC(C)C)NC(=O)[C@H](Cc1cnc[nH]1)NC(=O)[C@H](Cc1cnc[nH]1)NC(=O)[C@H](CC(C)C)NC(=O)[C@H](Cc1c[nH]c2ccccc12)NC(=O)[C@H](Cc1ccccc1)NC(=O)[C@H](CCCNC(=N)N)NC(=O)[C@H](CCCNC(=N)N)NC(=O)[C@H](CCCNC(=N)N)NC(=O)[C@H](CC(C)C)NC(=O)[C@H](CC(=O)O)NC(=O)[C@H](CCC(N)=O)NC(=O)[C@@H](NC(=O)[C@H](CO)NC(=O)[C@H](CCCCN)NC(=O)CNC(=O)[C@H](CCCCN)NC(=O)[C@H](CC(=O)O)NC(=O)[C@H](Cc1cnc[nH]1)NC(=O)[C@H](CC(C)C)NC(=O)[C@H](CC(C)C)NC(=O)[C@H](CCC(N)=O)NC(=O)[C@@H](NC(=O)[C@H](CCC(=O)O)NC(=O)[C@H](CO)NC(=O)[C@@H](NC(=O)[C@H](C)N)C(C)C)[C@@H](C)CC)[C@@H](C)CC)[C@@H](C)CC)[C@@H](C)CC)[C@@H](C)O)C(=O)O
→ 4.9 | 26%
- COC(=O)C1=C(C(=O)OC)[C@@H]2N(C)c3ccc(OC)cc3[C@@]23C[C@@H](C(=O)OC)N(S(=O)(=O)c2cccs2)C3=N1
→ -3.4[11.7 µM] | -25%

Next entries follow:
Under each structure – Menin MLL FP FL | Sfp inh
- O=c1cnc2cnc(Oc3ccccc3)nc2n1Cc1ccc(F)cc1
→ -3.9 | -1%
- Cc1c(-c2ccccc2)oc2c(C(=O)OCCN3CCCCC3)cccc2c1=O
→ -0.9[24.8 µM] | -8%
- COc1cccc(-c2nc(NCc3cccnc3)c3ccccc3n2)c1
→ 5.3 | 0%
- CCCC[C@@H]1C[C@H]1C(NC(=O)c1ccccc1)c1ccccc1C(F)(F)F (stereo partly drawn)
→ 0.5 | 18%
- CC[C@H](C)[C@H](NC(=O)[C@H](CC(C)C)NC(=O)[C@H](CO)NC(=O)[C@H](CCC(=O)O)NC(=O)[C@H](CC(C)C)NC(=O)[C@H](Cc1ccc(O)cc1)NC(=O)[C@H](CCCCN)NC(=O)[C@H](CCCCN)NC(=O)[C@H](C)NC(=O)[C@H](CO)NC(=O)[C@H](CC(C)C)NC(=O)[C@H](CCC(N)=O)NC(=O)CNC(=O)[C@H](CC(C)C)NC(=O)[C@H](CC(C)C)NC(=O)[C@H](CCCNC(=N)N)NC(=O)[C@H](CO)NC(=O)[C@H](Cc1ccccc1)NC(=O)[C@H](CC(=O)O)NC(=O)[C@H](CO)NC(=O)[C@@H](NC(=O)[C@H](Cc1ccccc1)NC(=O)[C@@H](NC(=O)CNC(=O)[C@H](CC(=O)O)NC(=O)[C@H](C)NC(=O)[C@@H](N)Cc1cnc[nH]1)C(C)C)[C@@H](C)O)C(N)=O
→ 2.6 | -2%
- N[C@H](C(=O)O)C1[C@H](C(=O)O)[C@H]1C(=O)O (stereo partly drawn)
→ ? | -22%
- COc1cccc(C=NC=Nc2cccc(OC)c2)c1
→ -16 | ?
- COC(=O)C/C=C1\c2ccccc2C(OC)C1C (stereo not drawn)
→ -0.6[11.7 µM] | 5%

Ordered by value in Menin MLL FP FL (high to low): 3 of the compounds above
Compound,Menin MLL FP FL,Sfp inh
COc1cccc(-c2nc(NCc3cccnc3)c3ccccc3n2)c1,5.3,0%
O=c1cnc2cnc(Oc3ccccc3)nc2n1Cc1ccc(F)cc1,-3.9,-1%
COc1cccc(C=NC=Nc2cccc(OC)c2)c1,-16,?
